Compound activity (PubChem BioAssay)
Rango dissoc inh: inhibition of RanGTP-driven Rango-importin beta dissociation; O95149+P62826; Biochemical FRET Rango-importin beta, RanGTP-induced dissociation; Potency, µM (doses to about 46.1 µM), inactives show top-dose activity change, negative = inhibition; hit rate 0.071% among 340,000; AID 540253; active means falling FRET ratio curve, often poorly fitted, with flat reads before Ran was added; inconclusive means other falling curves, or compound fluorescence or quenching; inactive means flat or rising ratio curve;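 also: potency is read from the fitted curve at half-maximal effect; % of control where 0% means no effect; nearly all actives have a fitted effect of over 45% in size; -100% = wells without RanGTP and RCC1; the record marks most hits as doubtful in a second field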
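Rango/importin beta premix (0.1/0.25 uM final), PBS + 1 mM DTT + 0.02% Tween-20 + 0.1% BSA; cpd 5 min RT; FRET pre-read; + RanGTP-RCC1 (0.6 uM Ran, 2 mM GTP, 0.2 uM RCC1); 45 min RT; FRET post-read, ex 430, em 486/530 nm.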
Rango complex inh: inhibitors of Rango-importin beta complex formation; Rango CFP/YFP FRET sensor + importin beta, 45 min; AID 540263; hit rate 0.031% among 340,000; Potency, µM (doses to about 92.2 µM), for the others: top-dose inhibition of complex formation; active = rising FRET ratio curve, often small or poorly fitted; inconclusive = mostly compound fluorescence or quenching in the first reads; inactive = flat curves in all reads;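 also: potency is read from the fitted curve at half-maximal effect; 0% = DMSO wells and 100% = buffer wells lacking importin beta; nearly all actives have a fitted effect of over 15% in size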
Target sequence (Q14974 whole entry, looked up): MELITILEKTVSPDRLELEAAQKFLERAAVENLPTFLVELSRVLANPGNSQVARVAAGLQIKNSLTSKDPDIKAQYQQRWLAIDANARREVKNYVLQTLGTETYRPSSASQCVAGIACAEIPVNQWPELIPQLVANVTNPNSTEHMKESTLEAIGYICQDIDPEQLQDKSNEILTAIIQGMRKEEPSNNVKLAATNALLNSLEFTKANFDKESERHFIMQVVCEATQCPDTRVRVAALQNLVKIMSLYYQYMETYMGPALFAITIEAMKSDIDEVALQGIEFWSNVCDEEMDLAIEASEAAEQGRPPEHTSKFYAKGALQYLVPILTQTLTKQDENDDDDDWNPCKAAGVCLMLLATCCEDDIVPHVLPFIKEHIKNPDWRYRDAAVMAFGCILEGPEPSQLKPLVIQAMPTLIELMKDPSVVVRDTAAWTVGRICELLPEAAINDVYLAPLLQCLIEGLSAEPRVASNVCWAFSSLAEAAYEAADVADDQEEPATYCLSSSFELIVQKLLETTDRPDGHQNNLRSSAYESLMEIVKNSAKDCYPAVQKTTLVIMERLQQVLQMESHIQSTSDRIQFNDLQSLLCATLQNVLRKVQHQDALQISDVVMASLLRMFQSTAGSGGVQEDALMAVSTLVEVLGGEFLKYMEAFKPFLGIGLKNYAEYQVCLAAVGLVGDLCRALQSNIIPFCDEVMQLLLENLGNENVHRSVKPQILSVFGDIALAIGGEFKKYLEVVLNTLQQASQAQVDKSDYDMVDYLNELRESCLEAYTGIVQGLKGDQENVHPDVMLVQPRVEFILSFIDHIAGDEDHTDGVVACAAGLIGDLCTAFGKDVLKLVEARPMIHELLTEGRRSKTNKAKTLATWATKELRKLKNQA
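FRET biosensor Rango (snurportin 1 IBB between N-terminal EYFP and C-terminal Cerulean), 50 nM in PBS/1 mM DTT/0.02% Tween-20/0.1% BSA, preincubated 5 min RT with compound; 0.125 microM importin beta added, 45 min RT, CFP/YFP FRET ratio read.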
miR-21 reporter: miR-21 reporter, rising signal; HeLa miR-21 FLuc reporter, luciferase, 48 h; Potency, µM (doses to about 38.3 µM), inactives show top-dose reporter change, positive = more light; 340,000 tested, under 10 active; AID 2288; active = well fitted rising curve with a large enough effect; inconclusive = small, poorly fitted or top-dose-only effect; inactive = no such curve, though single readings can be large or run the other way;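 also: % of control where 0% means no effect; miR-21 action dims this reporter so a rising signal means less miR-21 action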
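HeLa cells endogenously expressing miR-21, stably carrying CMV-driven firefly luciferase with a downstream miR-21 binding site, 2000 cells/well. Titrations up to approximately 40 uM, 48 hours; luciferase luminescence read.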
GLA inh pH 4.5: alpha-galactosidase A (human) inhibition, pH 4.5; P06280; purified enzyme, 4-MU-alpha-Gal fluorescence, pH 4.5; activity change, negative = inhibition, % at 105 µM; 230,000 tested, under 10 active; AID 1467; inconclusive = small, poorly fitted or top-dose-only inhibition, or a rising curve; inactive = flat fitted curve, though single readings scatter; no compound was filed as active;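 also: 0% = full activity with enzyme and -100% = basal without enzyme; dose as in the result columns while the protocol names 77 µM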
Numbers without * were called inactive; ? = inconclusive; . = no result given; & = joins results of further samples. This is a subset; the hit share may differ from the screen's.

no. | Structure | Rango dissoc inh | Rango complex inh | miR-21 reporter | GLA inh pH 4.5
1 | COCCn1c(SCC(=O)Nc2sc(C)c(C)c2C#N)nnc1-c1ccc(OC)cc1 | -2% | -3.1% | -5% | -3
2 | COc1ccc(/C=N/N=C2/NC(=O)C(CC(=O)NC(C)C)S2)cc1 (stereo unspecified) | 0% | 0.1% | 0% | 7
3 | CC(OC(=O)Cn1cnc2c1c(=O)n(C)c(=O)n2C)C(=O)N(C)c1ccccc1 (stereo unspecified) | 21% | 0.0% | . | .
4 | CC1C/C(=N/N=C2/NC(=O)CS2)CC(C)(C)C1 (stereo unspecified) | -8% | -1.1% | -1% | 5
5 | Cc1cccc(N2CCN(Cc3oc(CO)cc(=O)c3O)CC2)c1C | -18% | -0.4% | 1% | 8
6 | COc1ccc(CNC(=O)COC(=O)c2cc(S(=O)(=O)N3CCOCC3)ccc2O)cc1OC | -5% | 2.0% | . | .
7 | COC(=O)c1[nH]c2ccccc2c1Sc1ccccc1 | -3% | 1.5% | 15% | .
8 | CCOc1cc(/C=C/C(=O)c2ccc3c(c2)OCCO3)ccc1OCC(=O)N(C)C | -3% | ? | ? | .
9 | COC(=O)c1sc(C(F)(F)F)c(-c2ccccc2)c1S(=O)(=O)NC(C)(C)C | -2% | 0.0% | 1% | -8
10 | CN1C(=S)SC(/[N+]([O-])=C/c2ccc(Cl)cc2)C1(C)C (stereo unspecified) | -7% | 0.8% | 4% | 7
11 | CCCC(=O)OCC(=O)Nc1ccc(OC(F)F)cc1 | 1% | 3.7% | -7% | -1
12 | COCCOc1ccc(C(F)(F)F)cc1NC(=O)COC(=O)c1c(C)noc1C | -25% | -1.1% | -5% | 0
13 | CN(CC(=O)Nc1cccc(F)c1)C(=O)CNS(=O)(=O)c1ccc(N(C)C)c([N+](=O)[O-])c1 | 1% | 3.4% | . | .
14 | COc1ccccc1NC(=O)C1=C(C)Nc2nc(-c3cccs3)nn2C1c1cccnc1 (stereo unspecified) | 14% | -7.9% | -1% | -6
15 | CC1=C(C(N)=O)C(c2ccccc2[N+](=O)[O-])n2ncnc2N1 (stereo unspecified) | -2% | 0.7% | 2% | .
16 | COc1cccc(-c2cc(C(F)(F)F)c(C#N)c(=O)[nH]2)c1 | -5% | -2.0% | -6% | ?
17 | CCN(c1ccc(OC)cc1)S(=O)(=O)c1nnc(NC(=O)COc2ccccc2)s1 | -24% | 2.4% | 1% | .
18 | O=C(Cn1ncc2c([nH]c3ccccc32)c1=O)N1CCN(c2ccc(F)cc2)CC1 | 3% | -1.1% | -1% | .
19 | COc1ccc(CCNC(=O)c2cnc3ccccc3n2)cc1 | 13% | -6.5% | -21% | .
20 | CCn1nc(C)c([N+](=O)[O-])c1C(=O)NNC(=O)c1ccccc1Cl | -16% | 2.7% | 4% | 0
21 | COc1ccc(/C=C/C(=O)O)cc1S(=O)(=O)N1CCC(Cc2ccccc2)CC1 | 8% | 3.5% | -6% | -15
22 | COc1cccc(Cn2c(NCc3cccnc3)nc3c2c(=O)n(C)c(=O)n3C)c1 | -4% | 0.4% | 26% | 12
23 | O=C(Cn1c(C(=O)N2CCN(C3CCCCC3)CC2)cc2sccc21)c1ccccc1 | 1% | -3.2% | -8% | -4
24 | CCOCCc1nn2c(=O)cc(CSCC(=O)Nc3cc(C)cc(C)c3)nc2s1 | 0% | 0.0% | 2% | .
25 | COc1ccc(CN2C(=O)CCC(C(=O)O)C2c2ccccc2)cc1 (stereo unspecified) | 1% | 0.5% | -1% | 7
26 | Cc1nc(Cl)sc1C(=O)Nc1ccccc1 | -3% | -3.8% | -20% | 3
27 | Cc1nc2ccc([N+](=O)[O-])cc2[nH]1 | -16% | -2.4% | -1% | -1
28 | O=C(NCc1ccccc1Cl)NC(=O)c1csc([N+](=O)[O-])c1 | 21% | 1.0% | 0% | -5
29 | CCCC(C(=O)NCC1CCCO1)N(Cc1ccco1)C(=O)CNS(=O)(=O)c1ccc(F)cc1 (stereo unspecified) | 7% | -3.9% | -5% | -9
30 | COc1ccc(C(=O)c2ccccc2)c(OCC(=O)NC2CC2)c1 | -1% | 5.4% | 5% | 1

The last 5 entries of the section above open the next one.
no. | Structure | Rango dissoc inh | Rango complex inh | miR-21 reporter | GLA inh pH 4.5
26 | Cc1nc(Cl)sc1C(=O)Nc1ccccc1 | -3% | -3.8% | -20% | 3
27 | Cc1nc2ccc([N+](=O)[O-])cc2[nH]1 | -16% | -2.4% | -1% | -1
28 | O=C(NCc1ccccc1Cl)NC(=O)c1csc([N+](=O)[O-])c1 | 21% | 1.0% | 0% | -5
29 | CCCC(C(=O)NCC1CCCO1)N(Cc1ccco1)C(=O)CNS(=O)(=O)c1ccc(F)cc1 (stereo unspecified) | 7% | -3.9% | -5% | -9
30 | COc1ccc(C(=O)c2ccccc2)c(OCC(=O)NC2CC2)c1 | -1% | 5.4% | 5% | 1
31 | COc1ccc(C2C(=O)N(CCc3ccccc3)CC(=O)N2C2CCCC2)cc1 (stereo unspecified) | 9% | 3.2% | -6% | -2
32 | Nn1c(SCC(=O)NC2CCS(=O)(=O)C2)nnc1-c1ccco1 (stereo unspecified) | 6% | -0.5% | . | .
33 | CC(C)Oc1ccccc1C1Nc2ccccc2C(=O)N1c1ccc2c(c1)OCCO2 (stereo unspecified) | 1% | 2.2% | -6% | -2
34 | C=CCn1c(SCC(=O)NC2CCS(=O)(=O)C2)nnc1-c1ccncc1 (stereo unspecified) | -6% | -5.0% | 2% | 10
35 | COc1cccc(NC(=O)CN(c2cccc(OC)c2)S(C)(=O)=O)c1 | -7% | 4.9% | -1% | -9
36 | CCCN(C(=O)c1cc(S(=O)(=O)N(C)c2ccccc2OC)ccc1C)C1CCS(=O)(=O)C1 (stereo unspecified) | -8% | 0.2% | . | .
37 | O=C(CC(NCCc1ccccc1)C(=O)O)Nc1ccc(O)cc1 (stereo unspecified) | . | . | -3% | 2
38 | O=C(OCCN1CCN(c2ncc(C(F)(F)F)cc2Cl)CC1)c1ccc(F)cc1 | 1% | 1.7% | 0% | -10
39 | Cc1noc(C)c1S(=O)(=O)N1CCC(Cc2ccccc2)CC1 | -7% | 3.0% | -2% | 4
40 | COc1ccc2c(C)c(C(=O)NCC(C)O)oc2c1OC (stereo unspecified) | -11% | 5.7% | -5% | -17
41 | COc1ccc(/C=N\NC(=O)CCN2CCN(c3ccccc3)CC2)cc1OC | -7% | -4.7% | -6% | 5
42 | O=C(Nc1ccon1)c1cnc2sccn2c1=O | -9% | 6.0% | -15% | -4
43 | Nn1c(SCC(=O)NC2CCS(=O)(=O)C2)nc2scc(-c3ccccc3)c2c1=O (stereo unspecified) | 34% | 0.1% | . | .
44 | Cc1cc(OCC(=O)Nc2sc3c(c2C#N)CC(C)(C)NC3(C)C)c(C(C)C)cc1Cl | -13% | -2.1% | -1% | .
45 | COc1ccc(C(=O)NC(=S)NCc2ccco2)cc1 | -9% | -1.9% | -24% | -3
46 | COc1ccc(CC(=O)Oc2ccc(C)cc2Br)cc1S(=O)(=O)N1CCOCC1 | -7% | -3.6% | . | .
47 | COc1cc(/C=N/NC(=O)c2ccc3ccccc3c2)ccc1Oc1ccc([N+](=O)[O-])cn1 | 10% | 0.0% | 2% | 1
48 | Brc1ccc2c(c1)C(c1cccnc1)=NNC(c1cccs1)=N2 | -10% | 5.0% | 11% | -5
49 | CC1SCCN1S(=O)(=O)c1ccc2ccccc2c1 (stereo unspecified) | 1% | -1.7% | -8% | -1
50 | O=C(CCCN1C(=O)C(c2ccccc2)Oc2cccnc21)NCc1ccc(F)cc1 (stereo unspecified) | 0% | 3.4% | -2% | .
51 | Cc1cc(C)c(NC(=O)c2cc(C(=O)O)ccc2C(=O)O)c([N+](=O)[O-])c1 | -8% | -1.1% | -2% | 5
52 | CN(CCOc1ccc(Cl)cc1)C(=O)CNS(=O)(=O)c1ccc(N(C)C)c([N+](=O)[O-])c1 | ? | -1.8% | . | .
53 | CCOc1ccc(NS(=O)(=O)c2ccc(C(=O)N(C)Cc3cccc(OC)c3OC)cc2)cc1 | 11% | ? | 15% | .
54 | CCOC(=O)c1c(CN2CCOCC2)n(C)c2cc(Br)c(O)c(CN(C)C)c12 | -8%&1% | -2.3%&3.1% | -15%&-17% | 2&3
55 | O=C1C2Sc3[nH]c(=O)sc3C(c3cc([N+](=O)[O-])ccc3O)C2C(=O)N1c1ccccc1 (stereo unspecified) | -5% | 0.4% | 0% | -8
56 | CCCCOc1ccc(C(=O)NCC(=O)OC2CCOC2=O)cc1 (stereo unspecified) | 39% | -0.6% | -3% | 4
57 | Fc1ccccc1C1c2[nH]c3ccccc3c2CCN1Cc1ccoc1 (stereo unspecified) | -2% | -5.8% | 6% | 1
58 | O=S(=O)(Nc1ccccc1)c1ccc(NS(=O)(=O)c2cccs2)cc1 | 8% | 1.4% | -1% | .
59 | COC(=O)c1cccc(C(=O)N2CCCC(CCC(=O)N(C)CCc3ccccn3)C2)c1 (stereo unspecified) | 3% | -2.9% | -1% | .
60 | COc1cccc(N(CC(=O)NCCSc2ccccc2)S(C)(=O)=O)c1 | 1% | -4.5% | -7% | 4
61 | O=C(Nc1nc(-c2cccs2)cs1)c1cc2ccccc2oc1=O | . | . | -8% | 6
62 | O=C(CCc1ccccc1)NNC(=O)c1ccc(F)cc1 | -11% | 2.1% | 0% | 3
63 | O=C(C[n+]1cccc(C(=O)N/N=C/c2ccc(Br)cc2)c1)c1ccccc1 | -11% | -1.3% | . | .
64 | CC(C)c1ccc(NC(=O)CSc2nc3ccccc3nc2N2CCCC2)cc1 | -20% | ? | -8% | .
65 | Cn1c(Cc2csc(N)n2)nnc1SCC(=O)NC1CCCCC1 | 1% | 0.0% | 1% | 1
66 | COc1ccccc1CCC(=O)NNC(=O)c1ccc(Br)cc1 | 15% | 0.3% | -12% | .
67 | CCOC(=O)c1ccc(NC(=O)COc2ccc(CNCCO)cc2OCC)cc1 | -1% | 0.4% | -2% | 4
68 | O=C(c1ccc(S(=O)(=O)N2CCOCC2)cc1)N1CCN(c2ccccc2F)CC1 | 10% | -2.5% | -4% | -1
69 | Cc1noc(C)c1C(=O)Nc1nnc(-c2ccccc2)s1 | -1% | 3.2% | -13% | 2
70 | CCN(CC)S(=O)(=O)c1ccc(C(=O)NCCN(C)C)cc1 | -9% | -1.0% | -1% | 3
71 | O=C(Nc1ccnn1C1CCN(C(=O)c2cnsn2)CC1)c1cccc(F)c1 | 37% | -3.3% | -4% | .
72 | CCc1ccccc1NC(=O)CN1CCN(C(=O)CCC(=O)N2CCC(c3ccccc3)=N2)CC1 | -24% | -4.7% | . | .
73 | Cc1cc2c(N=NC(=O)C3CC3c3ccccc3)c(O)[nH]c2cc1Br (stereo unspecified) | -4% | 2.2% | -10% | 1
74 | O=C(CS(=O)(=O)c1cn(Cc2ccc(F)cc2)c2ccccc12)N1CCCCC1 | 4% | 0.6% | -2% | -6
75 | CCCONC(=O)Nc1ccccc1[N+](=O)[O-] | 1% | -0.6% | -19% | -6
76 | CC[C@H](C)[C@H](NC(N)=O)C(=O)Nc1ccc(C)cc1 | -8% | 0.4% | 0% | 10
77 | CC(=O)Nc1ccccc1OCC(=O)NCCC1=CCCCC1 | 0% | -1.5% | -11% | 9
78 | CC(C)Oc1ccc(C(=O)Nc2ccc([N+](=O)[O-])cc2)cc1 | 24% | 1.2% | -51% | 0
79 | CCOC(=O)C1(CCCc2ccccc2)CCN(C(=O)c2cnc(C)cn2)CC1 | 9% | 1.2% | -11% | -5
80 | O=C(N/N=C1\CCCc2ccccc21)c1cccc([N+](=O)[O-])c1 | 0% | -1.0% | -17% | 4
81 | CCc1ccc(NC(=O)CNC(=O)c2cn(-c3ccccc3OC)c(=O)c3ccccc23)cc1 | 7% | 3.4% | 12% | -6
82 | CCOc1ccc(/C=N/n2c(C3CCCCC3)n[nH]c2=S)cc1 | 10% | 0.6% | -8% | .
83 | Cc1ccnc(SCC(=O)N2CCN(c3ccccc3)CC2)n1 | 1% | -4.2% | -7% | 3
